CBX7 inh – CBX7 chromodomain binding inhibitors, primary screen, biochemical, AlphaScreen; Chromobox protein homolog 7 (Homo sapiens), O95931; AlphaScreen His6-CBX7 / biotin-H3K27me3 peptide binding; active compounds read low; normalised signal (fraction of DMSO) (test concentration not listed); actives 1.1% (n = 66,000); in the data active means normalised signal below about 0.5;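 further: 100 nL library stock added to about 20 µL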
Target sequence (O95931 whole entry, looked up): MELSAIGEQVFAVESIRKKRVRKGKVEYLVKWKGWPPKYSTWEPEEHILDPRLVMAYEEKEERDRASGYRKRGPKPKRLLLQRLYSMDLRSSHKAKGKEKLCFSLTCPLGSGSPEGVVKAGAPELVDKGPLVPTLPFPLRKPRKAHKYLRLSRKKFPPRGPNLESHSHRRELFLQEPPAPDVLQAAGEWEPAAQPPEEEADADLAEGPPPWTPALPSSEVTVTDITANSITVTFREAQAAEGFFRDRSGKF
CBX7 inh z-score – recorded beside CBX7 inh, whose call it bears; z-score; measured here: z-score of CBX7 signal; some inactives read as strong as hits; reference of the scale not given here;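 same signal on another scale; lower means less binding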
Active calls of the source: *; & = joins results of further samples.

Screening COc1cccc(NS(=O)(=O)c2ccc3[nH]cc(C(=O)N4CCCCC4C)c(=O)c3c2)c1 (configuration not stated) returned CBX7 inh 0.92 and CBX7 inh z-score -0.55.
Cc1nc2c(-c3ccccc3)c(C)nn2c(C)c1CCC(=O)NC(C)c1ccc2c(c1)OCCO2 (configuration not stated) was read as CBX7 inh 1.2 and CBX7 inh z-score 2.1.
O=C(CSc1nnc(Cc2cc(=O)[nH]c(=O)[nH]2)n1-c1ccccc1)N1CCOCC1 was read as CBX7 inh 1.1 and CBX7 inh z-score 0.21.
`COc1ccc(Nc2cc(C(=O)NCCC(C)C)c3ccccc3n2)cc1` gave CBX7 inh 1 and CBX7 inh z-score 0.42.
Screening CCN(C(=O)Cn1nc(Cc2cccnc2)c2ccccc2c1=O)c1cccc(C)c1 returned CBX7 inh 1.1 and CBX7 inh z-score 3.4.
O=C(NCCCN1CCCC1=O)c1cc2c(s1)CSC2 was read as CBX7 inh 0.96 and CBX7 inh z-score -0.39.
Cc1oc(-c2ccccc2Cl)nc1CS(=O)(=O)CC(=O)NC1CCCC(C)C1C (configuration not stated) was read as CBX7 inh 1 and CBX7 inh z-score 1.4.
Screening CC1CCN(C(=O)c2cc(-c3ccc4c(c3)OCO4)on2)CC1 returned CBX7 inh 0.82 and CBX7 inh z-score -2.5.
CCCn1cnc2cc(NCc3cccs3)ccc21 was read as CBX7 inh 0.74 and CBX7 inh z-score -7.4.
COc1ccc(NC(=O)CSc2nc3ccccc3s2)cc1 was read as CBX7 inh 1.1 and CBX7 inh z-score 2.2.

Structural class, the compounds so far containing four or more nitrogen atoms (3)
Cc1nc2c(-c3ccccc3)c(C)nn2c(C)c1CCC(=O)NC(C)c1ccc2c(c1)OCCO2 (configuration not stated) was read as CBX7 inh 1.2 and CBX7 inh z-score 2.1.
O=C(CSc1nnc(Cc2cc(=O)[nH]c(=O)[nH]2)n1-c1ccccc1)N1CCOCC1 was read as CBX7 inh 1.1 and CBX7 inh z-score 0.21.
Screening CCN(C(=O)Cn1nc(Cc2cccnc2)c2ccccc2c1=O)c1cccc(C)c1 returned CBX7 inh 1.1 and CBX7 inh z-score 3.4.

Additional results follow.
`Cc1ccc(Cn2nc(C)c(NC(=O)c3cc(-c4ccc(F)cc4)on3)c2C)cc1` gave CBX7 inh 1 and CBX7 inh z-score 1.2.
For COc1ccc(OC(C)c2nc(-c3ccc(Br)cc3)no2)cc1 (configuration not stated) the results were CBX7 inh 1.2 and CBX7 inh z-score 1.9.
For CC(=O)Nc1ccc(Nc2nc(-c3ccccc3)c3cc(C)ccc3n2)cc1 the results were CBX7 inh 0.58 and CBX7 inh z-score -7.
`CCCCn1cnc2cc(NCc3cccc(OC)c3)ccc21` gave CBX7 inh 0.36* and CBX7 inh z-score -19*.
CCc1ccc(-n2cnc3cc(C(=O)NCC(OC)OC)ccc32)cc1 was read as CBX7 inh 1 and CBX7 inh z-score 0.38.
CC1CCCCN1CCCNC(=O)c1ccc2c(c1)NC(=O)c1ccccc1S2 (configuration not stated) was read as CBX7 inh 0.98 and CBX7 inh z-score -0.56.
For CCN(CCCNC(=O)c1cn(C2CCCCC2)c(=O)c2c1c1ccccc1n2C)c1ccccc1 the results were CBX7 inh 0.77 and CBX7 inh z-score -5.6.
`Cc1oc(-c2ccccc2F)nc1CS(=O)(=O)CC(=O)NCCCSC1CCCCC1` gave CBX7 inh 0.71 and CBX7 inh z-score -5.5.
`COc1ccc(Cn2c(CCC(=O)NCc3cccc(Cl)c3)nc3cccnc32)cc1` gave CBX7 inh 0.95 and CBX7 inh z-score -0.98.
O=S(=O)(c1cnc[nH]1)N1CCN(c2cccc(C(F)(F)F)c2)CC1 was read as CBX7 inh 1 and CBX7 inh z-score 0.046.

Reprinted from the part before: 4 entries, followed by the next part.
For CCN(CCCNC(=O)c1cn(C2CCCCC2)c(=O)c2c1c1ccccc1n2C)c1ccccc1 the results were CBX7 inh 0.77 and CBX7 inh z-score -5.6.
`Cc1oc(-c2ccccc2F)nc1CS(=O)(=O)CC(=O)NCCCSC1CCCCC1` gave CBX7 inh 0.71 and CBX7 inh z-score -5.5.
`COc1ccc(Cn2c(CCC(=O)NCc3cccc(Cl)c3)nc3cccnc32)cc1` gave CBX7 inh 0.95 and CBX7 inh z-score -0.98.
O=S(=O)(c1cnc[nH]1)N1CCN(c2cccc(C(F)(F)F)c2)CC1 was read as CBX7 inh 1 and CBX7 inh z-score 0.046.
CC(C)c1ccc2oc(-c3ccc(NC(=O)c4cncc(Br)c4)cc3)nc2c1 was read as CBX7 inh 1 and CBX7 inh z-score 0.39.
For O=C(Nc1ccccc1-c1nc2ccccc2[nH]1)c1ccc(Br)cc1 the results were CBX7 inh 1.1 and CBX7 inh z-score 0.91.
Screening O=C1C2C(C(=O)N1CCO)C1C=CC2C12CC2 (configuration not stated) returned CBX7 inh 1 and CBX7 inh z-score 0.95.
Screening CCCCN(C)CCCNC(=O)c1cc(=O)[nH]c2ccc(S(=O)(=O)N3CCCCCC3)cc12 returned CBX7 inh 1.1 and CBX7 inh z-score 3.
`CCCN(C(=O)CCc1nc(-c2ccc(C)cc2)no1)c1cccc(C)c1` gave CBX7 inh 0.95 and CBX7 inh z-score -0.46.
`O=C(CC1Sc2ccccc2NC1=O)Nc1ccc(-c2ccccc2)cc1` (configuration not stated) gave CBX7 inh 1 and CBX7 inh z-score 0.33.
COc1ccc(-c2csc(NC(=O)CN3C(=O)CCC3=O)n2)cc1 was read as CBX7 inh 1.2 and CBX7 inh z-score 1.4.
`Cc1ccc2nc(Nc3ccc(C(=O)Nc4ccccc4Cl)cc3)nc(-c3ccccc3)c2c1` gave CBX7 inh 1.4 and CBX7 inh z-score 6.5.
CCc1ccc(-c2nc(CN3CCC(C(=O)NCCC(C)C)CC3)c(C)o2)cc1 was read as CBX7 inh 0.88 and CBX7 inh z-score -1.9.
COCCNC(=O)CS(=O)(=O)Cc1nc(-c2ccccc2Cl)oc1C was read as CBX7 inh 0.97 and CBX7 inh z-score -0.9.
`CCOCCCNC(=O)c1c[nH]c2ccc(S(=O)(=O)N(C)c3ccc(F)cc3)cc2c1=O` gave CBX7 inh 1.1 and CBX7 inh z-score 0.97.
For CCOC(=O)c1c(NC(=O)c2ccc(OC(C)C)cc2)sc2c1CCCC2 the results were CBX7 inh 1.3 and CBX7 inh z-score 9.7.
`O=c1[nH]c(SCc2cccc(Cl)c2)nc2c1CCCC2` gave CBX7 inh 1 and CBX7 inh z-score 0.32.
`CC(=O)N1CCc2cc(S(=O)(=O)NCCC(=O)Nc3cc(C)ccn3)ccc21` gave CBX7 inh 0.91 and CBX7 inh z-score -1.4.
For CCNC(=O)C1CCCc2c1[nH]c1ccc(Cl)cc21 (configuration not stated) the results were CBX7 inh 1 and CBX7 inh z-score 1.4.
O=C1CCCc2c([nH]c3ccc(C4CCCCC4)cc23)C1 was read as CBX7 inh 1.1&0.9 and CBX7 inh z-score 0.56&-1.1.
For CCCCCCCCNC(=O)c1c(O)c2ccccc2[nH]c1=O the results were CBX7 inh 0.94 and CBX7 inh z-score -1.1.
CC(C)NC(=O)c1cn(C2CCCC2)c(=O)c2c1c1ccccc1n2C was read as CBX7 inh 1 and CBX7 inh z-score 1.1.
`CCC(CC)C(=O)N1CC(=O)Nc2ccc(Cl)cc2C1c1ccc(F)cc1` (configuration not stated) gave CBX7 inh 1.1 and CBX7 inh z-score 1.5.
`Cc1ccc(F)cc1NC(=O)c1sc2ncn(CC(=O)N3CCC(C)CC3)c(=O)c2c1C` gave CBX7 inh 0.88 and CBX7 inh z-score -1.3.

Quoted at random: two compounds from above.
`CC(=O)N1CCc2cc(S(=O)(=O)NCCC(=O)Nc3cc(C)ccn3)ccc21` gave CBX7 inh 0.91 and CBX7 inh z-score -1.4.
`O=c1[nH]c(SCc2cccc(Cl)c2)nc2c1CCCC2` gave CBX7 inh 1 and CBX7 inh z-score 0.32.

Later entries
Cn1nc(CC(=O)Nc2ccc(F)c(Cl)c2)c2ccccc2c1=O was read as CBX7 inh 1.1 and CBX7 inh z-score 1.1.
Screening Cc1ccc(CNC(=O)c2cc(-c3ccccn3)nc3ccccc23)cc1 returned CBX7 inh 1 and CBX7 inh z-score 1.3.
For Cc1cc(C)c(S(=O)(=O)Nc2cccc3ccc(C)nc23)c(C)c1 the results were CBX7 inh 1.1 and CBX7 inh z-score 0.44.
For COc1ccc(CNC(=O)CN2C(=O)COc3ccc(S(=O)(=O)N4CCCCCC4)cc32)cc1 the results were CBX7 inh 1.1 and CBX7 inh z-score 1.7.
For COc1ccc(Nc2nc(-c3ccccc3Cl)nc3ccccc23)cc1Cl the results were CBX7 inh 1 and CBX7 inh z-score 1.3.
Cc1ccc(CN2C(=O)CCC2(C)C(=O)NC2CCCCCCC2)cc1 (configuration not stated) was read as CBX7 inh 1 and CBX7 inh z-score 0.3.
Screening COc1cc2c(C(=O)Nc3ccc(C(F)(F)F)cc3)cn(C)c(=O)c2cc1OC returned CBX7 inh 1.1 and CBX7 inh z-score 1.6.
`Cc1ccc(Nc2c(-c3ccc(Cl)cc3)nc3sccn23)c(C)c1` gave CBX7 inh 0.74 and CBX7 inh z-score -5.3.
Screening COc1ccc(CCNC(=O)C2CCN(C(=O)c3sccc3-n3cccc3)CC2)cc1OC returned CBX7 inh 1 and CBX7 inh z-score 0.57.
For O=C1Nc2cc(C(=O)N3CCCC3)ccc2SC1N1CCN(c2ccc(Cl)cc2)CC1 (configuration not stated) the results were CBX7 inh 0.91 and CBX7 inh z-score -2.8.
For CCCN1CCN(C(=O)c2cccc3c2C(=O)N(CCOC)C3)CC1 the results were CBX7 inh 1.2 and CBX7 inh z-score 3.
Screening Cc1cc(C(F)(F)F)n2ncc(-c3cccc(Br)c3)c2n1 returned CBX7 inh 1 and CBX7 inh z-score 0.32.
COc1ccc(-c2nc(Nc3ccc(Br)cc3C)c3ccccc3n2)cc1OC was read as CBX7 inh 1 and CBX7 inh z-score 1.3.
`Cc1ccc2nc(-c3ccc(S(=O)(=O)N4CCCCCC4)cc3)cn2c1` gave CBX7 inh 0.97 and CBX7 inh z-score -1.1.
Screening Cc1nc2cc(NC(=O)c3ccc(S(=O)(=O)N4CCCCC4C)cc3)ccc2s1 (configuration not stated) returned CBX7 inh 0.99 and CBX7 inh z-score -0.23.
COc1ccc(-c2nc(N3CCC(C)CC3)[nH]c(=O)c2C#N)cc1 was read as CBX7 inh 0.85 and CBX7 inh z-score -2.7.
CC(=O)N1CCc2cc(S(=O)(=O)NCc3ccc(F)cc3)ccc21 was read as CBX7 inh 1 and CBX7 inh z-score 0.76.
For COc1ccc(-c2noc(CCC(=O)NCC3(c4ccccc4)CCCC3)n2)cc1 the results were CBX7 inh 0.85 and CBX7 inh z-score -0.15.
Screening c1ccc(-c2nc3sccn3c2Nc2ccc3c(c2)OCCO3)cc1 returned CBX7 inh 0.69 and CBX7 inh z-score -11.
O=C(NCc1ccc(Cl)cc1)C1CC(=O)N(c2ccc(O)cc2)C1 (configuration not stated) was read as CBX7 inh 1 and CBX7 inh z-score 0.3.

Part of the list above in order of heavy-atom count, descending.
For COc1ccc(-c2noc(CCC(=O)NCC3(c4ccccc4)CCCC3)n2)cc1 the results were CBX7 inh 0.85 and CBX7 inh z-score -0.15.
COc1ccc(-c2nc(Nc3ccc(Br)cc3C)c3ccccc3n2)cc1OC was read as CBX7 inh 1 and CBX7 inh z-score 1.3.
For CCCN1CCN(C(=O)c2cccc3c2C(=O)N(CCOC)C3)CC1 the results were CBX7 inh 1.2 and CBX7 inh z-score 3.

(further entries)
Screening Cc1cc(=O)n2nc(N3CCCC(C(=O)NCCCSC4CCCCC4)C3)sc2n1 (configuration not stated) returned CBX7 inh 0.92 and CBX7 inh z-score -0.61.
Screening Cc1ccc2c(c1)NC(=O)C(CC(=O)NCc1cccnc1)O2 (configuration not stated) returned CBX7 inh 0.96 and CBX7 inh z-score -0.23.
For CCOC(=O)N1CCC(Nc2c(Nc3ccc(Cl)cc3)c(=O)c2=O)CC1 the results were CBX7 inh 1 and CBX7 inh z-score 0.45.
Screening COc1ccccc1Nc1nc2ccccc2nc1NS(=O)(=O)c1ccc(C)cc1 returned CBX7 inh 1 and CBX7 inh z-score 0.9.

Source: PubChem BioAssay (several laboratories)

These rows are one share of the data (hit frequency here may not be typical).
